PKM2 act = increases activity of human pyruvate kinase M2 | Potency, µM (highest dose often 57.5 µM), for inactives: at the top dose activation, actives largely listed as activators | hit rate 0.34% among 260,000 | purified PKM2, Kinase-Glo ATP luminescence, activation; response scale: 0% is enzyme alone, no compound | AID 1631 | P14618; also: potency is read from the fitted curve at half-maximal effect; nearly all actives have a fitted effect of over 55% in size
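ATP formation by purified human PK-M2, quantified via coupled luciferase luminescence after 1 h at room temperature with 0.1 mM ADP and 0.5 mM PEP final.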
B2AR arrestin = recruits beta-arrestin to the human beta2-adrenergic receptor; P07550; beta-arrestin recruitment to beta2AR, cell-based reporter; Potency, µM (titrated, usually from 46.1 µM), inactives show at the top dose activation, hits mostly activators; hit rate 0.02% among 330,000; AID 492947;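 also: potency is read from the fitted curve at half-maximal effect; 0% = DMSO controls and full agonism = EC100 isoproterenol or metaproterenol; nearly all actives have a fitted effect of over 65% in size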
USP2a inh = inhibitors of human ubiquitin-specific protease USP2a. O75604. USP2 core, Ub-CHOP2 coupled fluorogenic reporter, 485/531. Potency, µM (top dose mostly 38.3 µM), for the others: at the highest dose activity change, negative = inhibition, usual class: inhibitors. hit rate 0.01% among 330,000;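 also: potency is read from the fitted curve at half-maximal effect; plate controls were DMSO wells for no effect and full inhibition by NEM control for full effect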
Target sequence (O75604 whole entry, looked up): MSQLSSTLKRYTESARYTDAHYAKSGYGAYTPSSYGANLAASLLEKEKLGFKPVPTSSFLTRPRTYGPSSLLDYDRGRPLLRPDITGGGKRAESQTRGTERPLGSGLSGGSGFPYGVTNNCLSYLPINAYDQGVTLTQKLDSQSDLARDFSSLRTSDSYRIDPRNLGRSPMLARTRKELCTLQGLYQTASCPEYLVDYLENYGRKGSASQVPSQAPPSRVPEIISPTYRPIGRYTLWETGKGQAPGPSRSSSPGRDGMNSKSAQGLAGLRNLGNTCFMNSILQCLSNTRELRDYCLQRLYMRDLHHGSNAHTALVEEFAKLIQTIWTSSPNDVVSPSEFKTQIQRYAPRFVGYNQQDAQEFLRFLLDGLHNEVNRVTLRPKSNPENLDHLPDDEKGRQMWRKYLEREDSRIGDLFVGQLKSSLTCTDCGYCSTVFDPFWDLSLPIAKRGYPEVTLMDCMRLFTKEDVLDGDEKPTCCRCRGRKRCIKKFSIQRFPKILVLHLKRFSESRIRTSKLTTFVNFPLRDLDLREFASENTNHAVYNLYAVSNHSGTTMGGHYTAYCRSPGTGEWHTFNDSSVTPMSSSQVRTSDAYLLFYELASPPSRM
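USP2 core (10nM final) preincubated 30min RT with compound in 20mM Tris-HCl pH 8.0, 2mM CaCl2, 2mM beta-mercaptoethanol, 0.05% CHAPS; 25nM Ub-CHOP2 plus 25nM reporter substrate added, fluorescence (Ex485/Em531) read after 60min.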
uPA surface inh = cell surface uPA generation inhibition; Potency, µM (series often up to 38.3 µM), for inactives: top-dose activity change, negative = inhibition, actives largely listed as inhibitors; hit rate 0.31% among 330,000; cell surface uPA generation assay, qHTS; active = well fitted inhibition curve with a large enough effect; inconclusive = small, poorly fitted or top-dose-only effect; inactive = no such curve, though single readings can be large or run the other way; tested in mouse RAW 264.7 cells; also: potency is read from the fitted curve at half-maximal effect; nearly all actives have a fitted effect of over 55% in size
Giardia killer = kills Giardia lamblia. activity change, % at 7.66 µM, hits read low. AID 540267. Giardia lamblia trophozoite viability. hit rate 0.15% among 340,000; in the data active = activity change below about -80%; inconclusive = between about -30% and that limit;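 also: parasites exposed to compound for two days anaerobically before the ATP read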
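Each well holds 100 Giardia trophozoites and compound. After two days (48 hrs) at 37 deg C in anaerobic conditions, ATP is quantified by luminescence.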
Eya2 inh = inhibitors of human Eya2 phosphatase activity; O00167; recombinant Eya2, OMFP fluorescence dephosphorylation (OMFP is methylfluorescein phosphate); Potency, µM (series often up to 76.9 µM), for the others: at the top dose activity, negative = inhibition, actives largely listed as inhibitors; hit rate 0.006% among 330,000; AID 488837; also: potency is read from the fitted curve at half-maximal effect
Target sequence (O00167 whole entry, looked up): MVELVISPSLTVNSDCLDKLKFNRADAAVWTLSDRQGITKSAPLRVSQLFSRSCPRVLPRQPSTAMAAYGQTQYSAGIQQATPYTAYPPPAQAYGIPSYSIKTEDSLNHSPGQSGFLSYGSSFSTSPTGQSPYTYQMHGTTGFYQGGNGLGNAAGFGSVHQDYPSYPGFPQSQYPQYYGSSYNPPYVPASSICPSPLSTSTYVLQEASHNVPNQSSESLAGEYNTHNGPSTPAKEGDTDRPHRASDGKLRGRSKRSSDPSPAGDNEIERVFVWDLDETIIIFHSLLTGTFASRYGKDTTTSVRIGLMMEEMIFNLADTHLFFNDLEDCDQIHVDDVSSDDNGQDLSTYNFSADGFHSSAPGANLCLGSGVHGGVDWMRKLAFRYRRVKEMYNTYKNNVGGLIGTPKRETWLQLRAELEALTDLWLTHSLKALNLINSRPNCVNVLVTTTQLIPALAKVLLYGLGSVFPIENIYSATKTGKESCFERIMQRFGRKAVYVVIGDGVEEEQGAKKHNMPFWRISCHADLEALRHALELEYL
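Eya2 protein (added as 0.2 uM solution) was preincubated with compound for 10 min at ambient temperature in 50 mM HEPES pH 7.5, 50 mM NaCl, 5 uM MgCl2, 0.05% BSA, 1 mM DTT. OMFP (added at 50 uM) then reacted 10 min; fluorescence read at 485/525 nm.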
BCR signal inh = blocks chronic active B-cell receptor signaling | ABC-DLBCL IkBa-CBG/CBR reporter, luminescence ratio, 4 h | Potency, µM (doses to about 46.1 µM), for inactives: top-dose ratio change, negative = lower green/red ratio, most hits filed as inhibitors | hit rate 0.05% among 340,000; active = well fitted inhibition curve with a large enough effect in the signal ratio, with a control signal flat, not every such curve was filed as active; inconclusive = small, poorly fitted or top-dose-only effect, or effect the other way, or a change in a side signal; the % refers to the signal ratio;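 also: potency is read from the fitted curve at half-maximal effect; plate controls were basal doxycycline-induced cells for no effect and cells given 10 µM MG132 for full effect; MG132 reads +100%, hits lower the ratio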
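Cell line TMD8 (human ABC DLBCL), stably expressing tet-inducible CBG68-IkBa fusion and CBR; IMDM/0.5% FBS; cpd up to 46 uM; dox induction, 4 h, 37C/5% CO2; dual luminescence; green/red ratio; MG132 control.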
GALK inh = inhibitors of human galactokinase. P51570. Purified GALK, Kinase-Glo residual ATP luminescence. Potency, µM (doses to about 57.5 µM), for the others: at the highest dose activity change, negative = inhibition, hits mostly inhibitors. hit rate 0.007% among 270,000. AID 1868; also: potency is read from the fitted curve at half-maximal effect
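Luminescence from leftover ATP (Ultra-Glo luciferase/luciferin) served as read-out after a 1 h room-temperature reaction of 5 nM GALK with 35 uM ATP and 100 uM galactose.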
FBPA coupling cs = counter-screen for Giardia aldolase inhibitors: coupling enzyme system. hit rate 0.67% among 290,000. AID 2472. activity change, negative = inhibition, % at 58.2 µM, hits read low. coupling enzyme system counterscreen, AmpLite Red fluorescence; in the data active = activity change below about -30%
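First, compound is pin-transferred into glyceraldehyde-3-phosphate coupling-enzyme reagent at 57.5 uM final and held 10 min at RT. Next, substrate, coupling system and AmpLite Red are added. After 20 min RT, fluorescence (525/598 nm) is read.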
Numbers without * were called inactive; ? = inconclusive; nt = no result given; & = joins results of further samples. Unless noted, calls follow the shape of the dose curve; as a rule, active = well fitted curve in the direction sought with a large enough effect; inconclusive = small, poorly fitted or top-dose-only effect, or another doubt; inactive = no such curve, though single readings can be large; an effect the other way counts as inactive or inconclusive. Unless noted, % is scaled to controls: 0 for no effect and ±100 for the full control effect.

cpd	SMILES	GALK inh	Eya2 inh	BCR signal inh	B2AR arrestin	PKM2 act	Giardia killer	USP2a inh	uPA surface inh	FBPA coupling cs
1	CC1CC2C3CCC4=CC(=O)C=C[C@@]4(C)[C@]3(F)C(O)C[C@]2(C)[C@]1(O)C(=O)CO (stereo partly specified)	nt	nt	nt	nt	nt	nt	nt	nt	5.6&0.8
2	CC1(C)O[C@@H]2CC3C4C[C@H](F)C5=CC(=O)C=CC5(C)C4C(O)CC3(C)[C@]2(C(=O)CO)O1 (stereo partly specified)	nt	0.0%	?	0.4%	nt	-27.3	1.3%	-16.1%	nt
3	NC(=O)c1cccnc1Nc1ccccc1Cl	1.5%	4.0%	-0.4%	-1.1%	4.2%	-9.9	1.3%	0.9%	-9.2
4	Clc1ccc(-c2noc(CN3CCN(c4ccccc4)CC3)n2)cc1	-1.8%	-18.6%	8.7%	-0.3%	6.3%	-15.6	-2.1%	-2.7%	-0.3
5	CN(CC(=O)Nc1ccc(Cl)c(Cl)c1)C(=O)CNC(=O)Cc1ccccc1	nt	1.2%	?	0.0%	nt	8.6	2.3%	-2.7%	nt
6	O=C1C2C3c4ccccc4C(c4ccccc43)C2C(=O)N1Cc1ccccn1 (stereo unspecified)	3.3%	4.4%	-8.3%	-0.1%	3.0%	11.1	0.9%	-1.4%	-0.8
7	COC(=O)CNC(=O)C1Cc2ccccc2CN1S(=O)(=O)c1cccs1 (stereo unspecified)	4.1%	-3.3%	-4.8%	0.4%	-1.2%	-7.1	-0.3%	-1.4%	1.5
8	CCOc1cc(N2CCOCC2)c(OCC)cc1NC(=O)c1nn(CC)c(=O)c2ccccc12	nt	9.7%	0.2%	0.7%	nt	20.8	1.9%	6.0%	nt
9	Cn1c(NCCN2CCOCC2)nc2c1c(=O)n(Cc1cccc(Cl)c1)c(=O)n2C	-2.4%	-6.0%	7.4%	-0.1%	-1.1%	-10.9	5.0%	-5.2%	0.3
10	CC1(C)CC(=O)C2=C(C1)OC(N)=C(C#N)C2c1ccccc1OC(=O)N1CCOCC1 (stereo unspecified)	0.9%	-16.8%	1.7%	-0.1%	17.4%	18.7	3.1%	-3.6%	-11.1
11	CC[C@@H](C)[C@H]1O[C@]2(CC[C@@H]1C)C[C@@H]1C[C@H](C/C=C(/C)[C@H](O[C@@H]3C[C@H](OC)[C@H](O[C@@H]4C[C@H](OC)[C@@H](O)[C@H](C)O4)[C@H](C)O3)[C@@H](C)/C=C\C=C3CO[C@@H]4[C@H](O)C(C)=C[C@@H](C(=O)O1)[C@]34O)O2 (tested in a mixture with another compound)	nt	nt	nt	nt	nt	nt	nt	nt	-7.3
12	CCCCn1c(=O)nc2n(-c3ccc(C)cc3)c3ccccc3cc-2c1=O	1.3%	7.3%	?	-1.8%	-9.1%	21.1	1.4%	0.5%	1.4
13	CCn1c(C)cc(C(=O)CSc2nnc(-c3ccco3)o2)c1C	nt	-0.8%	-2.2%	0.2%	nt	17.7	4.3%	11.2%	nt
14	O=C(CSCc1ccc(F)cc1)N1CCN(c2ccccc2)CC1	-0.6%	0.3%	?	0.3%	0.1%	5.7	3.4%	nt	-1.2
15	COc1ccc(CNC(=O)C(c2ccc(O)cc2)N(Cc2ccco2)C(=O)c2snc(C(N)=O)c2N)cc1 (stereo unspecified)	1.9%	-0.1%	1.0%	-0.7%	-0.7%	15.2	-1.7%	-2.1%	2.7
16	NC(=O)C1CCN(c2ccc(C(F)(F)F)cc2[N+](=O)[O-])CC1	-3.1%	0.7%	5.1%	0.1%	-3.2%	4.7	-3.8%	nt	-2.0
17	CCN(CC)CCOc1ccc(/C(=C(/Cl)c2ccccc2)c2ccccc2)cc1	-1.7%	-17.1%&-5.3%	?	0.5%&-0.1%	-0.3%&-0.2%	-4.8&-6.1	-12.5%&1.7%	-14.7%&1.1%	-0.1&9.1
18	Cc1ccccc1CS(=O)(=O)Cc1ccc(C(=O)NCCCN2CCOCC2)o1	-1.2%	-14.8%	-2.3%	0.1%	10.6%	-13.9	-1.5%	0.4%	0.6
19	COc1ccc(C(=O)COC(=O)c2ccc3c(c2)OCCO3)c(OC)c1	nt	-17.7%	0.0%	0.3%	nt	-13.4	1.7%	3.3%	nt
20	CCC(Sc1ccc2nnc(-c3ccc(F)cc3)n2n1)C(=O)O (stereo unspecified)	-1.0%	?	4.3%	0.2%	-0.5%	-18.1	1.4%	nt	11.1
21	COc1ccc(N2CCN(C(=O)CC3NC4CCCCC4NC3=O)CC2)cc1 (stereo unspecified)	0.2%	-3.0%	-1.9%	-1.9%	-3.0%	16.4	1.0%	0.7%	1.8
22	CCOC(=O)/C(C#N)=C/C1=C(N2CCCC2)CC(C)(CC)OC1 (stereo unspecified)	-1.5%	-13.9%	?	-0.4%	-2.7%	-1.8	0.9%	0.3%	-5.7
23	CCOC(=O)C1CCCN(CC(=O)N(C)c2c(N)n(Cc3ccccc3)c(=O)[nH]c2=O)C1 (stereo unspecified)	nt	-6.1%	2.3%	-1.1%	nt	3.7	0.4%	4.4%	nt
24	CO[C@@]12[C@H](COC(N)=O)C3=C(C(=O)C(C)=C(N)C3=O)N1C[C@@H]1N[C@@H]12	nt	-2.8%	-0.3%	0.4%	nt	-21.5	0.8%	?	nt
25	COC(=O)NNC(=S)NCc1ccc(C)cc1	2.8%	1.0%	-15.3%	0.1%	-2.3%	8.8	1.7%	-0.4%	0.0
26	CCOC(=O)c1n[nH]c2ccccc12	0.0%	-9.5%	-28.8%	0.2%	3.0%	-19.6	3.2%	3.5%	0.2
27	O=C(CCS(=O)(=O)c1ccc(Br)cc1)N1CCN(c2ccccc2F)CC1	0.4%	2.6%	13.3%	-0.2%	-2.1%	2.2	-1.4%	5.1%	3.4
28	COC(=O)COc1ccc2cc(-c3ccc(OC)cc3)c(=O)oc2c1	0.9%	?	1.4%	0.4%	0.3%	-0.8	2.4%	-10.6%	0.1
29	O=C(O)C1CC=CCC1C(=O)NCc1cn2ccccc2n1 (stereo unspecified)	0.1%	15.9%	0.7%	3.3%	1.0%	-7.7	2.4%	-5.2%	-2.6
30	Cc1cc2c(c(SCC#N)n1)C(=O)OC2	2.5%	-4.0%	-4.4%	0.0%	8.0%	-3.5	1.7%	-4.4%	-0.1
31	C[C@@H]1C[C@H]2[C@@H]3C[C@H](F)C4=CC(=O)C=C[C@]4(C)[C@@]3(F)[C@@H](O)C[C@]2(C)[C@@]1(O)C(=O)CO	7.9%	1.4%	?	-0.6%	-1.7%	5.4	3.5%	0.7%	2.6
32	COc1ccc(CNC(=O)CCC(=O)c2ccccc2)cc1	nt	-4.6%	1.2%	0.0%	nt	-11.5	-1.2%	-4.0%	nt
33	Cc1cc(C)cc(C(=O)Nn2cnnc2)c1	-0.3%	?	2.4%	-0.5%	-2.6%	4.2	-1.2%	-1.6%	2.8
34	O=C(Cn1ccnc1[N+](=O)[O-])NCc1ccccc1	nt	3.7%	0.1%	0.2%	nt	-83.3*	-1.0%	-4.7%	nt
35	CCCCCCC[N+](CC)(CC)CCCCc1ccc(Cl)cc1	nt	-14.2%	?	-1.3%	nt	-7.3	-0.1%	?	4.1
36	Cc1nnsc1C(=O)N/N=C/c1ccccc1Cl	6.2%	-7.5%	14.5%	-0.4%	-7.6%	13.0	1.7%	-24.7%	0.9
37	COc1ccc(C)cc1NC(=O)n1ncc2c(C)cccc21	nt	0.4%	3.2%	0.1%	nt	-17.5	2.8%	9.4%	-1.7
38	COc1ccccc1C(=O)Nc1ccnn1C1CCN(Cc2cc(C)c(C)cc2C)CC1	0.0%	-11.5%	-11.8%	-0.8%	nt	4.9	1.0%	?	nt
39	O=C(Nc1ccsc1C(=O)NC1CC1)c1ccccc1	1.4%	1.3%	16.5%	-1.0%	0.3%	-2.9	-0.3%	-1.3%	-0.5
40	Cc1ccc(S(=O)(=O)N[C@H](C(=O)N2CCC(C(=O)N3CCC[C@H]3C(=O)O)CC2)C(C)C)cc1	0.4%	12.0%	-0.3%	-1.1%	-11.2%	-2.9	-4.9%	0.0%	5.2
41	COc1ccc(OC2C(=O)N(CCc3ccc(OC)c(OC)c3)C2c2ccc3c(c2)OCO3)cc1 (stereo unspecified)	-2.4%	-34.8%	2.3%	-0.3%	9.0%	1.7	0.8%	8.1%	-0.8
42	CCCOc1ccc(CNC(=O)C2CCN(c3nnc(N4CCCC4=O)s3)CC2)cc1	nt	4.0%	-0.5%	-0.2%	0.8%	-2.9	2.7%	11.3%	0.4
43	O=C(c1ccc(F)cc1)C1CCN(C(=O)c2ccc(Cl)cc2)CC1	nt	nt	nt	nt	nt	-10.8	nt	-7.5%	nt
44	N#CCOc1ccccc1P(=O)(c1ccccc1)c1ccccc1	4.1%	5.9%	0.6%	0.3%	nt	29.6	-2.4%	-2.8%	-3.4
45	CCOC(=O)/C(C#N)=C\C1=C(N2CCCC2)CC(C)(CC)OC1 (stereo unspecified)	0.0%	0.3%	21.1%	-0.2%	0.5%	1.7	0.4%	-1.5%	0.3
46	O=C(Nc1ncn[nH]1)c1cccc(F)c1	nt	-11.9%	?	-0.1%	nt	16.1	0.7%	11.9%	nt
47	COc1cc(-c2nnc(COC(=O)c3cccn3C)o2)cc(OC)c1OC	nt	nt	nt	nt	nt	-20.9	nt	-4.0%	nt
48	Cc1ccc(NC(=O)CCCn2c(=O)[nH]c3ccsc3c2=O)cc1	-1.0%	-10.6%	8.7%	0.3%	-6.7%	4.8	-1.4%	4.8%	-0.6
49	CCc1cccc(N(C(=O)c2csnn2)C(C(=O)NC(C)(C)C)c2ccncc2)c1 (stereo unspecified)	0.9%	0.5%	-2.4%	-0.2%	2.7%	4.7	-0.2%	-1.7%	2.0
50	CN1CCCC1CCO[C@@](C)(c1ccccc1)c1ccc(Cl)cc1 (stereo partly specified)	nt	nt	nt	nt	nt	nt	nt	nt	4.5
51	CCCc1cc(C(N)=O)c(NC(C)=O)s1	-1.2%	-29.1%	11.6%	-0.2%	-4.5%	-8.6	0.7%	nt	1.5

High-throughput results (PubChem BioAssay)

A portion of the library. The share of hits here may be higher or lower than overall.
